Screening results from PubChem.
Arbovirus anti – arbovirus infection inhibition. arbovirus infection cell-based antiviral screen. inhibition, % at 10 µM. hit rate 0.37% among 200,000;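 active = inhibition from about 30%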;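 note: bluetongue infection of BSR cells; cell survival read as ATP light after 72 h; 0% = infected wells without compound and 100% = uninfected wells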
RecA splice inh – Mtb RecA intein splicing inhibition; P9WHJ3; cell-free RecA intein splicing, fluorescence; inhibition, %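 (about 9 µM by stock and volumes)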; hit rate 0.75% among 290,000; in the data active = inhibition above about 30%; inconclusive = no clear call, values can overlap the other calls;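 note: 0% = vehicle wells and 100% = reference inhibitor control wells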
Target sequence (P9WHJ3 whole entry, looked up, canonical isoform): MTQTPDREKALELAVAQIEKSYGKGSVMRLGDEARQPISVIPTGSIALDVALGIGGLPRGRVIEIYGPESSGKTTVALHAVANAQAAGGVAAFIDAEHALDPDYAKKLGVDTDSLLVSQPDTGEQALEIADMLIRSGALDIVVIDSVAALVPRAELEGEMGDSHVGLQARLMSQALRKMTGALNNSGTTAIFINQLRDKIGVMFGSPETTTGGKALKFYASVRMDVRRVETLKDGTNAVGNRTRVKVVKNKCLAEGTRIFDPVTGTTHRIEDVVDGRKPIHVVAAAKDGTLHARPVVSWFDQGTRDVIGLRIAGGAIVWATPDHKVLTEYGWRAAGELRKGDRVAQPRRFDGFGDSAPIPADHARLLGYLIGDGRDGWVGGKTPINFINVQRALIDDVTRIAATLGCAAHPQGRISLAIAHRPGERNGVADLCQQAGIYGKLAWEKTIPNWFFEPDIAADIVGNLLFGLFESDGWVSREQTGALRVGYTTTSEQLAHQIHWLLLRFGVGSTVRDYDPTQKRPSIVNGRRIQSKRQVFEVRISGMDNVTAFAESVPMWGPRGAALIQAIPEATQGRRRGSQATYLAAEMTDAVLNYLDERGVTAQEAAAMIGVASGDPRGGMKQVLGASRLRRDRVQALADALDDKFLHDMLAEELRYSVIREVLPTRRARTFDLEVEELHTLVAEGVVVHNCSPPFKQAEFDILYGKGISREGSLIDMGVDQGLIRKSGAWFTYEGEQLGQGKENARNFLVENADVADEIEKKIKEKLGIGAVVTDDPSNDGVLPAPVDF
Mtb H37Rv – M. tuberculosis H37Rv growth inhibitors, H37Rv strain (AID 1626); inhibition, % at 10 µM, or IC50 in µM where a hit was titrated; M. tuberculosis H37Rv growth inhibition; higher % means a stronger effect; hit rate 0.95% among 220,000;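 active = confirmed in a dose series; inconclusive = inhibition above 80% but not taken into the dose series; inactive = below 80% or under 30% at every dose of the series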;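 note: bacteria incubated seven days before Alamar blue readout; 0% = bacteria only wells and 100% = bacteria with antibiotic wells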
Mtb betalactam – beta-lactam sensitization of Mtb H37Rv | M. tuberculosis H37Rv growth with meropenem, percent inhibition; hits of this screen are not shown here | inhibition, % at 25 µM | hit rate 0.27% among 330,000 | AID 434955;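 active = about 74% or more and at least 40 points above the plate without the antibiotic, then above 30% in a dose series; inconclusive = first-round hits that could not be retested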;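 note: growth measured after seven days incubation then overnight dye step; 0% = bacteria only wells and 100% = bacteria with antibiotic; twin plates without the antibiotic show which effects depend on it; some results filed as inactive read as strong as hits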
YopH PTP inh – inhibitors of Yersinia enterocolitica YopH tyrosine phosphatase. fluorescence Ex485/Em525. inhibition, %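 (about 10 µM by stock and volumes)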. hit rate 0.16% among 140,000;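 active = inhibition of 50% or more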;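 note: controls were vehicle for no effect and minimum signal wells for full effect; inactives centre near -20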
Arbovirus anti repeat – recorded beside Arbovirus anti, whose call it bears; inhibition, %; measured here: 10K subset replicate screen; many hits read low in the repeat;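 first of two repeat runs on a subset; 0% = infected and 100% = uninfected wells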
The depositor's hits bear a star; ? = inconclusive; . = no result given; & = joins results of further samples.

The opening 2 compounds, ahead of the listing:
SMILES	Arbovirus anti	RecA splice inh	Mtb H37Rv	Mtb betalactam	YopH PTP inh	others
CCN(CC)CCN1C(=O)C(=O)/C(=C(/O)c2c(C)[nH]c(C(=O)OC)c2C)C1c1cccc(OC)c1 (stereo not given)	-6	-1.5	-6%	-6	-34
C=CCn1c(C)csc1=Nc1ccc(C(=O)O)cc1	7	0.3	-2%	-7	.

The listing, repeating the preview:
SMILES	Arbovirus anti	RecA splice inh	Mtb H37Rv	Mtb betalactam	YopH PTP inh	others
CCN(CC)CCN1C(=O)C(=O)/C(=C(/O)c2c(C)[nH]c(C(=O)OC)c2C)C1c1cccc(OC)c1 (stereo not given)	-6	-1.5	-6%	-6	-34
C=CCn1c(C)csc1=Nc1ccc(C(=O)O)cc1	7	0.3	-2%	-7	.
CCS(=O)(=O)N1Cc2ccccc2CC1C(=O)NCC12CC3CC(CC(C3)C1)C2 (stereo not given)	-11	2.4	-9%	-17	-6
CCOc1cc(N2CCOCC2)c(OCC)cc1NC(=O)COc1ncnc2ccc(Br)cc12	2	-1.2	4%	-6	-10
C1CCC2S[C@H]3CCCCC3NC2C1 (stereo not given in full)	.	-6.5	1%	-3	.
Cc1c([C@@H]2C[C@H]3CN(Cc4cccc(Cl)c4)C(=O)[C@]34CCCN24)cnn1C	0	3.7	-9%	-5	.
CCCCNC(=O)Nc1nc2ccc(CC)cc2s1	13	6.1	6%	0	.
COc1ccc(C(=O)N2CCCC(N3CCN(c4ccccc4F)CC3)C2)c(OC)n1 (stereo not given)	.	0.0	.	-2	.
CCOc1ccc(C(=O)CC(Sc2ccc(C)cc2)C(=O)O)cc1 (stereo not given)	-4	-6.7	?	-6	.
COc1ccc(NC(=O)c2ccc(=O)[nH]c2)cc1S(=O)(=O)N1CCCCC1	2	-1.7	1%	-9	-27
CCOc1ccc(CN2CCNC(=O)C2CC(=O)NCc2csc(C)n2)cc1 (stereo not given)	.	-2.2	.	-8	.
COCc1cc(C)nc(NCCO)c1C#N	6	1.6	1%	1	-8
O=C(NCCC(=O)N1CCCC(C(F)(F)F)C1)c1ccc(Br)cc1 (stereo not given)	.	1.3	.	-2	.
CCOc1ccc(/C=N/Nc2ccccn2)cc1OC	-13	-0.7	6%	-4	.
Cc1ccc(S(=O)(=O)N2CCC(C(=O)OCC(=O)Nc3cc(S(C)(=O)=O)ccc3Cl)CC2)cc1C	.	1.1	.	-5	.
CCOc1cc(/C=N/NC(=O)C(=O)NC2CC2)cc(Br)c1O	-12	-2.0	-2%	2	-27
O=C1CC(NCCC2=CCCCC2)C(=O)N1c1cccc(Cl)c1Cl (stereo not given)	-3	.	-4%	2	-6
COc1cccc(CSc2nc3ccncc3[nH]2)c1	.	-4.3	3%	4	.
C/C(Cn1nc([N+](=O)[O-])cc1C)=N\NC(=O)c1ccc(C(C)(C)C)cc1	-10	-3.8	-8%	11	-14
CN(C)NC(=S)Nc1ccc(Cl)cc1	2	.	3%	99	-18
O=C1OC2(CCCCC2)OC(=O)C1=CNc1nccs1	-3	-2.6	1%	5	-23
Cc1nc(NC(=O)/C=C/c2ccccc2)sc1C(=O)Nc1ccccc1Cl	4	-2.3	-20%	7	-25
COc1cc(/C=N/Nc2nn3cnnc3c3ccccc23)ccc1O	-10	-3.3	-8%	-6	3
Cc1cccc2cc(CN(Cc3nnnn3C3CCCCC3)C3CCCC3)c3nnnn3c12	0	7.2	-1%	-12	-15
CC(=O)N1CCN(c2ccc(NC(=O)C(c3ccccc3)c3ccccc3)cc2)CC1	.	3.3	.	-5	.

Random excerpt: 2 compounds from above
SMILES	Arbovirus anti	RecA splice inh	Mtb H37Rv	Mtb betalactam	YopH PTP inh	others
C=CCn1c(C)csc1=Nc1ccc(C(=O)O)cc1	7	0.3	-2%	-7	.
O=C(NCCC(=O)N1CCCC(C(F)(F)F)C1)c1ccc(Br)cc1 (stereo not given)	.	1.3	.	-2	.

Continuation:
SMILES	Arbovirus anti	RecA splice inh	Mtb H37Rv	Mtb betalactam	YopH PTP inh	others
CCCC(C(=O)NCc1ccco1)N(C(=O)CNS(=O)(=O)c1ccccc1)c1ccccc1OC (stereo not given)	1	-14	2%	6	-7
NC(=O)c1ccc2c(c1)OCCO2	3	6.6	-1%	3	-25
CCCCCC(=O)Nc1cccc(C2=NOC3(C2)C[C@H](C(N)=O)N(C(=O)c2ccccc2)C3)c1 (stereo not given in full)	.	-0.6	-8%	-7	.
COc1ccc(OC(=O)c2cccc([N+](=O)[O-])c2)c(C(=O)/C=C/c2cccs2)c1	-4	-2.6	13%	.	-26
O=C(NCc1ccc(Cl)cc1)C1CCN(S(=O)(=O)c2ccc(N3CCCC3=O)cc2)CC1	.	-0.3	.	-10	.
COc1ccc(N(C)S(=O)(=O)c2cccc(C(=O)N3CCN(S(=O)(=O)c4ccc(C)cc4)CC3)c2)cc1	.	5.0	.	-3	.
Cc1ccc(S(=O)(=O)c2cnc3cc(C)nn3c2N)cc1	1	-1.6	-2%	-11	.
CCOC(=O)N1CCC(NCCNC(=O)c2ccccc2)CC1	-3	-1.4	-7%	0&-1	-33
CCOc1ccc(CNC(=O)CCCn2nc(C)c3c(C)n(-c4ccc(C)cc4)nc3c2=O)cc1	.	1.6	.	0	.
COc1cc(OC)cc(C(=O)NCCS(=O)(=O)N2CCN(Cc3ccccc3)CC2)c1	.	-1.3	.	-2	.
O=[N+]([O-])/C=C/c1cn(Cc2ccccc2)c2ccccc12	-41	7.8	14%	97	-35
COc1ccc(/C=C2\C(=O)OCc3cc(OC)c(OC)cc32)cc1OC	9	-1.2	-12%	-1	-15
O=C(O)C1=C[C@H](c2cccs2)C[C@H](OCc2ccc(CO)cc2)O1	.	-2.3	3%	-6	.
Cc1cccc(-c2nc(CS(=O)CC(=O)N3CC(C)CC(C)C3)c(C)o2)c1 (stereo not given)	.	1.6	.	-2	.
Cc1nnc(SCC(=O)c2ccc(Br)cc2)s1	19	-1.3	-7%	14	.
CSc1nnc(-c2cnccn2)n1C	7	-1.1	-7%	-13	-46
CCOC(=O)c1ccc(N2CCOCC2)c(NC(=O)c2nccnc2C(=O)O)c1	.	2.9	.	?	.
CC(C)(C)OC(=O)NCCCC[C@@H](C(=O)N1CCN(C(=O)OC(C)(C)C)CC1)n1cc(CCC(=O)O)nn1	-2	-2.4	0%	-2	.
COCCn1c(=O)c2ccccc2c2ccccc2c1=O	7	-3.2	-3%	8	.
COc1ccc(CCNC(=O)c2cc(C(=O)c3cc(C)ccc3O)cn(CCc3ccc(OC)cc3)c2=O)cc1	14	7.9	18%	12	-21
Cc1cc(C(=O)CSc2nnc3c(Cl)cc(Cl)cn23)c(C)n1C	13	0.1	-8%	-3	-41
O=C(CN1CCN(Cc2ccc3c(c2)OCO3)CC1)Nc1ccc2c(c1)OCCO2	-15	-1.6	3%	.	-11
c1csc(-c2nc3ccccc3[nH]2)c1	-1	.	-1%	-7	-5
CCC1(C)Cc2nc3[nH]c(=S)n(-c4ccccc4)c(=O)c3cc2CO1 (stereo not given)	8	-1.1	6%	4	-2
CCCN(CC1CC1)C(=O)COC(=O)c1ccc(CNS(=O)(=O)c2ccc(F)c(Cl)c2)cc1	6	2.3	9%	-2	-21
(cont.)
SMILES	Arbovirus anti	RecA splice inh	Mtb H37Rv	Mtb betalactam	YopH PTP inh	others
COc1ccc(NC(=S)NCCNC(C)=O)cc1	3	-0.7	-1%	-4	.
CCNc1nc(NC(C)C)nc(Oc2ccc(OCCOc3ccccc3)nn2)n1	-5	2.2	12%	-1	-34
C=CCc1c(C)nc2ccc(C(=O)OCC)cc2c1Cl	0	5.4	63%	48	.
CCOc1ccccc1C(=O)NC1CC2CCCC(C1)N2C1CC1 (stereo not given)	4	-1.0	-7%	-1	-23
COc1ccc(NC(=O)c2cccc(Cl)c2)c[n+]1[O-]	.	0.9	.	7	.
Cc1c(S(=O)(=O)N2CCCC(C(=O)O)C2)cnn1C (stereo not given)	1	-0.3	-10%	-3	.
CC1CCCCC1NC(=O)CCNS(=O)(=O)c1ccc2c(c1)CCC(=O)N2 (stereo not given)	.	-0.8	.	-4	.
O=C(C1=C(O)C(=O)N(CCN2CCOCC2)C1c1ccc(F)cc1)c1cccs1 (stereo not given)	.	1.9	.	-8	.
COc1ccc(C(=O)CN2CCN(S(=O)(=O)c3cccc([N+](=O)[O-])c3)CC2)cc1OC	-8	-7.4	-1%	-9	-8
COC(=O)COc1ccc(C2NC(=O)NC(c3ccccc3)=C2C(C)=O)cc1Br (stereo not given)	.	1.5	.	2	.
Cc1nn(C2CCS(=O)(=O)C2)c(Cl)c1/C=C/C(=O)OCC(N)=O (stereo not given)	.	-1.6	-12%	-5	.
CS(=O)(=O)N1c2cccc3cccc(c23)S1(=O)=O	.	-6.2	.	-2	.
COc1ccc(C(=O)CCC(=O)Nc2cccnc2)cc1OC	.	-1.7	.	-1	.
COc1cc([N+](=O)[O-])ccc1NC(=O)CN1CCCC1	6	0.0	9%	-19	.
Cc1cccc(NC(=O)N2CC3CC(C2)c2cccc(=O)n2C3)c1 (stereo not given)	.	-1.2	.	-10	.
C/C(=N\NC(=O)c1cc(-c2ccc(C)s2)nc2ccccc12)c1cccnc1	.	-14	.	4	.
CC(=O)c1cccc(N(C(=O)c2ccco2)C(C(=O)NC2CCCC2)c2ccncc2)c1 (stereo not given)	-1	3.3	4%	-4	-14
Cc1sc2nc3ccc(NCc4ccco4)nn3c(=O)c2c1C	5	-236	3%	-5	-6
CC(C(=O)N1CCC2(CC1)OCCO2)C1Sc2ccccc2NC1=O (stereo not given)	12	0.0	-2%	-10	-30
O=[N+]([O-])c1cccc(-c2nnc(-c3ccccc3)o2)c1	-7	-0.8	-6%	5	.
O=C(Nc1ccc(S(=O)(=O)Nc2nccs2)cc1)c1cc(-c2ccccc2)nc2ccccc12	21	-0.2	46%	16	-24
COC(=O)c1cc(Sc2cccc(Cl)c2Cl)ccn1	-15	6.9	11µM*	95	.
COc1ccccc1NCc1nnc(-c2ccccc2)o1	.	-1.7	.	11	.
Cc1ccccc1N1C(=O)C(Cc2ccc(F)cc2)S/C1=C(\C#N)C(N)=O (stereo not given)	.	-1.9	-14%	0	.
CN(C)S(=O)(=O)c1cccc(NC(=S)Nc2cccc3cnccc23)c1	.	4.9	20%	.	.

Compounds from the list above with a furan ring, fused or not, in the order listed:
SMILES	Arbovirus anti	RecA splice inh	Mtb H37Rv	Mtb betalactam	YopH PTP inh	others
CCCC(C(=O)NCc1ccco1)N(C(=O)CNS(=O)(=O)c1ccccc1)c1ccccc1OC (stereo not given)	1	-14	2%	6	-7
CC(=O)c1cccc(N(C(=O)c2ccco2)C(C(=O)NC2CCCC2)c2ccncc2)c1 (stereo not given)	-1	3.3	4%	-4	-14
Cc1sc2nc3ccc(NCc4ccco4)nn3c(=O)c2c1C	5	-236	3%	-5	-6

Going on with the list:
SMILES	Arbovirus anti	RecA splice inh	Mtb H37Rv	Mtb betalactam	YopH PTP inh	others
CC(=O)NC(C)c1nc2ccccc2n1C(C)C (stereo not given)	2	-1.1	-2%	0	-31	Arbovirus anti repeat=3
O=C(NCc1cccnc1)c1ccccc1NS(=O)(=O)c1ccccc1	.	-3.3	.	-12	.
O=C(NN=C1CCCC1)c1ccc(Cl)cc1	.	-2.0	.	6	.
CCOC(=O)C1=C(O)c2ccccc2C(=O)/C1=C\c1ccc(CC)cc1	-19	49*	-2%	7	-14
CS(=O)(=O)C1=C(O)C(=O)N(c2ccccc2)C1c1ccccc1 (stereo not given)	5	-1.6	-6%	-2	-36
CCOc1ccc(NC(=O)c2ccc3nccnc3c2)cc1	-1	3.8	.	-2	-25
CCOC(=O)CN(C(=O)CSc1nnc(-c2ccncc2)n1CCCN(C)C)c1ccccc1	1	.	-1%	-4	-48
CCn1c(CCNC(=O)c2ccc(Cl)cc2)nnc1SCC(=O)NC1CCCC1	8	-4.0	-12%	-14	32
COc1ccc(Cl)cc1C(=O)NNC(=O)CSc1nnnn1C	19	-1.4	-1%	-8	.
CCC(=O)c1ccc(OCC(O)Cn2cnc3ccccc32)cc1 (stereo not given)	3	2.4	12%	-4	-22
Cc1cc(C(=O)N2CCc3ccccc3C2)no1	.	3.5	.	0	.
COC(=O)c1ccccc1NC(NC(=O)c1ccco1)C(=O)c1ccc(C)cc1 (stereo not given)	-5	-0.8	-6%	2	-42	Arbovirus anti repeat=-11
COc1ccc(OC)c2[nH]c(=O)c(CCNC(=S)NC(C)(C)C)cc12	2	1.2	8%	4	.
CCOc1ccc2ccccc2c1C(=O)NCC(c1ccc(N(C)C)cc1)N(C)C (stereo not given)	.	-5.3	.	-1	.
Clc1ccc(-c2ccc(-c3nn4c(-c5ccco5)nnc4s3)o2)cc1	.	-0.1	-4%	.	-8
CC(=O)c1c(C)oc2c1C(=O)c1ccccc1C2=O	-40	1.5	-3%	-6	10

These rows are one share of the data. The share of hits here may be higher or lower than overall.
